ALR inh: inhibitors of human sulfhydryl oxidase ALR. inhibition, % (no concentration beside the values). P55789. 3.8% of 290,000 active. purified ALR, DTT oxidation, H2O2 HRP-luminol luminescence;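 active means mean and each replicate at 75% or more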;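 further: stock transfer was 7.5 nL into about 7.5 µL; 0% = neutral wells and 100% = wells with inactivated enzyme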
FGF22 binding: shifts melting point of recombinant human FGF22 | Q9HCT0 | recombinant FGF22 thermal shift, SYPRO orange fluorescence; percent of sucrose octasulfate shift, DMSO zero | calls only at 9.99 µM | 1.5% of 340,000 active;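 active means melting point raised past a set limit in the mean and every replicate; three in four hits are not shown here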
Target sequence (Q9HCT0 whole entry, looked up): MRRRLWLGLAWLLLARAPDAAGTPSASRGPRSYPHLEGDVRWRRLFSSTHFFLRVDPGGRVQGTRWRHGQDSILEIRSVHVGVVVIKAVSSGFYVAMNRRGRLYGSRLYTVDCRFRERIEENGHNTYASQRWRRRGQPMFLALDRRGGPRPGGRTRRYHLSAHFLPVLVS
rRNA inh HTS: inhibitors of bacterial rRNA selective over humanized ribosomes; E. coli WT GFP vs humanized-ribosome RFP mutants, fluorescence, 24 h; active compounds read low; DMSO median 0, no signal -100; AID 720706; GFP signal change (wild-type ribosome), % (concentration not given with the values); 1.6% of 350,000 active;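 active means significant combined selectivity score with lowered wild-type GFP, culture density cut under 30%, mutant RFP and density less affected; inactive means any of these conditions unmet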; further: one replicate is shown; some compounds called inactive have numbers as strong as hits
B2AR ag: activates human beta-2 adrenergic receptor causing internalization; AID 504454; Am2.2-beta2AR cells, FAP receptor internalization, flow cytometry; reference of the scale not given here; 0.43% of 340,000 active; P07550; response, % (test concentration not listed);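 active means response above a set limit, near 3 SD of response in nonfluorescent compounds, cut at about 42% in these data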;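 further: stock transfer was 100 nL into about 11 µL; a reference agonist was the positive control; negative values mostly stem from fluorescent compounds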
Target sequence (P07550 whole entry, looked up): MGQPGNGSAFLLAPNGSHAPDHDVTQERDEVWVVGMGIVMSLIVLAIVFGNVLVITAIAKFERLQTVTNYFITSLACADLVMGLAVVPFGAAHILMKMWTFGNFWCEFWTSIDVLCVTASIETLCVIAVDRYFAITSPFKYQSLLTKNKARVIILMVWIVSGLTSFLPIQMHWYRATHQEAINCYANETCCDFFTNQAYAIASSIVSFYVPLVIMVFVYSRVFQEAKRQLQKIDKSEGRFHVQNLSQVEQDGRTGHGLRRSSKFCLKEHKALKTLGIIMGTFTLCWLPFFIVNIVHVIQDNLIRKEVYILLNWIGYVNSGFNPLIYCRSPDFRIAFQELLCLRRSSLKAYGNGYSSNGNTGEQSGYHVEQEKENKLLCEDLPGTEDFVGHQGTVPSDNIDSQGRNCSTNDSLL
HNF4A DNA FP: change in binding of human HNF4 alpha to DNA; activity change, % at 10 µM; 0.3% of 360,000 active; AID 1224865; P41235; HNF4a-FITC DNA binding, fluorescence polarization, 1 h; in the data active means activity change above about 30%, passing the limit was not always enough;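 further: controls were the assay level and a saturating level of protein; the project sought stronger binding though the title names inhibitors; some compounds called inactive have numbers as strong as hits; positive values seem to mean higher polarization but the record does not say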
UCH37 inh: blocks the human deubiquitinase UCH37; Q9Y5K5; purified proteasome/UCH37, Ub-AMC cleavage fluorescence; inhibition, % (test concentration not listed); 0.33% of 330,000 active; AID 588478;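 active means mean of two replicates above 20%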;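 further: 0% = compound-free wells with enzyme and 100% = wells lacking proteasome; stock transfer was 100 nL into about 20 µL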
Target sequence (Q9Y5K5 whole entry, looked up): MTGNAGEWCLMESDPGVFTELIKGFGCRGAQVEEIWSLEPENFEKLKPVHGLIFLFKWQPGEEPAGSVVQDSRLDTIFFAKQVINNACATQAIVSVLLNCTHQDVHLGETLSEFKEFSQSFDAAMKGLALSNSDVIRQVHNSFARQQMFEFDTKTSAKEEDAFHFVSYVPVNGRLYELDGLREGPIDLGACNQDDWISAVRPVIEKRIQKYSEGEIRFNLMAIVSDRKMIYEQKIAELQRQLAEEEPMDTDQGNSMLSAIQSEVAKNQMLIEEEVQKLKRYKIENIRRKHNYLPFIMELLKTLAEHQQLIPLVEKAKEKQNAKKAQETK
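Reagent: Ub-AMC substrate; assay system: Proteasome-associated human UCH37 deubiquitinase; controls: no-proteasome and no-compound wells; read-out: % inhibition of Ub-AMC cleavage fluorescence; timing: 30 min preincubation with enzyme, 25 min cleavage at room temperature; signal: AMC fluorescence from Ub-AMC cleavage, excitation 355 nm, emission 460 nm; buffer or medium: Tris-HCl pH 7.4 plus ovalbumin, ATP-MgCl2, DTT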
E coli growth: inhibitors of Escherichia coli growth; 0.21% of 330,000 active; OD600, 23 h; active compounds read low; OD600 absorbance (test concentration not listed); AID 1053175;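 active means OD600 absorbance below the run mean of sample wells minus 3.6 SD, in any replicate, cut at about 0.56 in these data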;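 further: stock transfer was 300 nL into about 60 µL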
rRNA inh HTS OD600: second read-out of rRNA inh HTS, no call of its own (marks repeat the call); OD600 change, %; measured here: OD600 growth;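 optical density of the mix in the first replicate; 0 = DMSO median and -100 = no signal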
rRNA inh HTS RFP: second read-out of rRNA inh HTS, no call of its own (marks repeat the call); RFP signal change, %; measured here: RFP humanized mutant strains;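 first replicate; 0 = DMSO median and -100 = no signal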
The depositor's hits bear a star; i = inactive; nt = not tested or not shown. This is a subset (hit frequency here may not be typical).

SMILES | ALR inh | FGF22 binding | rRNA inh HTS | rRNA inh HTS OD600 | rRNA inh HTS RFP | B2AR ag | HNF4A DNA FP | UCH37 inh | E coli growth
COC(=O)N/N=C/c1cn(Cc2ccccc2Cl)c2ccccc12 | 0.1 | i | -25.8* | -7.9* | -3.7* | -14.3 | 0.7 | nt | nt
CC1CC(=O)Nc2ccccc2N1C(=O)COc1ccc2ccccc2c1 (stereo not drawn) | -6.1 | i | 0.6 | 4.7 | -3.1 | 2.0 | -7.5 | -0.7 | 0.674
CC(C)[C@H](Nc1ncnc2c1oc1ccccc12)C(=O)O | nt | i | 9.4 | 8.2 | 4.4 | -4.2 | -0.2 | 4.1 | 0.824
CCCCNC(=S)NNC(=O)c1nn(C)cc1Cl | nt | nt | nt | nt | nt | -1.9 | 1.9 | 3.2 | 0.686
CCN(CC(=O)N1CCCC1)S(=O)(=O)c1ccccc1 | -0.6 | i | 4.6 | 11.4 | -0.9 | -0.1 | -0.9 | 4.6 | 0.664
CCOC(=O)c1oc2ccc(S(=O)(=O)n3nc(-c4ccc(OC)cc4)cc3N)cc2c1C | -18.4 | i | 3.7 | -3.4 | -7.8 | 3.1 | -1.7 | 4.7 | 0.709
CC(=O)CC(=O)Nc1ccc(C(N)=O)cc1 | 47.8 | i | 6.9 | 2.5 | 1.6 | -1.0 | 4.0 | -0.9 | 0.659
Cn1c(O)c(N=NC(=O)c2cccc(S(=O)(=O)N3CCCCC3)c2)c2ccccc21 | 6.1 | nt | nt | nt | nt | -5.5 | -0.7 | 10.5 | 0.724
O=C(c1ccco1)[C@@H]1[C@@H]2C(=O)N(c3ccc(F)cc3)C(=O)[C@@H]2[C@H]2C=Cc3ccccc3N21 | 3.1 | i | 10.7 | 8.8 | 16.4 | 3.3 | 18.1 | 1.3 | 0.682
CN(Cc1ccccc1)C(=O)COc1ccccc1Cl | -6.3 | i | -10.7 | -14.3 | -4.3 | 3.9 | 1.3 | 5.5 | 0.627
COc1cccc(NC(=O)C(Sc2nnnn2C)c2ccccc2)c1 (stereo not drawn) | 9.2 | i | -3.4 | -0.6 | -0.1 | -15.9 | 4.7 | 2.4 | 0.673
Cc1c(OCc2ccc(C(=O)O)o2)ccc2c3c(c(=O)oc12)CCC3 | 16.8 | nt | nt | nt | nt | -3.6 | -7.9 | -130.1 | 0.69
CC(NC(=O)c1ccccc1Cl)C(=O)O (stereo not drawn) | 2.9 | nt | 20.2 | 13.3 | 1.7 | 1.0 | 2.1 | 3.0 | 0.642
NC(=O)c1cc(Cc2ccccc2)sc1NC(=O)c1ccco1 | 16.6 | i | -43.5 | -45.5 | 0.7 | -5.6 | 0.0 | -20.1 | 0.649
COc1ccc(NC(=O)C(c2ccccc2)N(C)C(=O)c2cnccn2)cc1 (stereo not drawn) | -2.9 | nt | nt | nt | nt | -0.9 | 1.9 | 2.8 | 0.692
Nc1ccccc1C(=O)NC12CC3CC(CC(C3)C1)C2 | nt | i | -1.9 | -0.5 | 12.8 | -4.0 | 0.9 | -42.2 | 0.673
COc1cc(C(=O)NCCc2nc3ccccc3n2C)cc(OC)c1OC | -2.0 | i | 0.6 | -2.4 | -0.3 | -12.9 | -0.2 | 0.9 | 0.677
Cc1cc(NC(=S)N(CCN2CCOCC2)Cc2ccccc2F)ccc1Cl | -1.4 | i | -18.5 | -26.9 | -3.6 | -2.1 | 1.7 | 5.3 | 0.722
COc1ccc(/C=N/NS(=O)(=O)c2ccc(C)cc2)cc1OC(=O)c1ccccc1 | 1.6 | nt | nt | nt | nt | -1.6 | -4.0 | nt | nt
O=C(Nc1ccccc1C(F)(F)F)c1ccc2nccnc2c1 | 4.6 | i | -0.9 | -4.6 | -0.9 | 17.0 | 6.8 | 2.9 | 0.731
Cc1ccc(S(=O)(=O)N2CCC(C(=O)OC(C)C(=O)NC3CCCCC3C)CC2)cc1 (stereo not drawn) | 0.1 | i | -2.2 | -5.6 | -0.5 | 1.0 | 0.9 | 1.8 | 0.654
Cc1ccc(C)n1-n1c(C)nc2sc(-c3ccccc3)cc2c1=O | 7.0 | nt | nt | nt | nt | 0.3 | 7.6 | -4.8 | 0.74
CCOc1ccc(OCCC(=O)OCC(=O)NC2CCCC2)cc1 | 0.9 | i | 8.0 | 9.8 | 1.2 | 1.0 | 0.3 | 3.0 | 0.699
CCN1CCC(NCCc2ccc(F)cc2)CC1 | 0.8 | i | 2.5 | 9.6 | 1.2 | -3.3 | 0.7 | 1.6 | 0.702
CSC1=NCCN1C(=O)c1c(F)cccc1Cl | -5.1 | nt | nt | nt | nt | -0.8 | -3.6 | -0.2 | 0.754
COCCCNCCOc1cc(C(C)C)ccc1C | -18.1 | nt | nt | nt | nt | -0.3 | -1.2 | 4.0 | 0.696
COc1cc2c(cc1OC)C(c1cccs1)N(C(=S)NC(C)C)CC2 (stereo not drawn) | -6.4 | i | -20.8 | -18.0 | -1.3 | -11.1 | 1.4 | 1.3 | 0.619
CC(C)CNC(=O)c1cccc2c1-c1ccccc1C2=O | 1.0 | i | 4.6 | 8.3 | -1.0 | 1.6 | 0.6 | -0.3 | 0.652
CCCOc1ccc(/C=N/NC(=O)CN2CCCCC2)cc1 | -25.6 | i | 3.0 | 5.3 | -0.8 | 2.8 | 2.3 | nt | nt
OCCC1CN(Cc2cc3c(cc2Cl)OCO3)CCN1C1CCCCC1 (stereo not drawn) | nt | i | -1.3 | 8.4 | -0.3 | 6.7 | -0.1 | 1.3 | 0.713

Part of the list above, with the structure last.
ALR inh	FGF22 binding	rRNA inh HTS	rRNA inh HTS OD600	rRNA inh HTS RFP	B2AR ag	HNF4A DNA FP	UCH37 inh	E coli growth	Structure
-18.1	nt	nt	nt	nt	-0.3	-1.2	4.0	0.696	COCCCNCCOc1cc(C(C)C)ccc1C
-6.4	i	-20.8	-18.0	-1.3	-11.1	1.4	1.3	0.619	COc1cc2c(cc1OC)C(c1cccs1)N(C(=S)NC(C)C)CC2 (stereo not drawn)

More compounds follow.
SMILES | ALR inh | FGF22 binding | rRNA inh HTS | rRNA inh HTS OD600 | rRNA inh HTS RFP | B2AR ag | HNF4A DNA FP | UCH37 inh | E coli growth
COc1cc(OC)cc(-c2c(-c3cccs3)c3cc(Br)ccc3n2C)c1 | 1.3 | i | nt | nt | nt | 3.2 | 1.2 | -25.0 | 0.698
O=C(c1ccccc1F)N1CCN(c2ccc([N+](=O)[O-])c3cccnc23)CC1 | nt | i | -8.8 | -12.3 | 6.0 | 10.6 | 1.6 | 9.1 | 0.704
Cc1ccc(C(=O)NC(=S)NNC(=O)c2ccc([N+](=O)[O-])cc2)cc1 | 98.8* | i | -2.3 | -13.9 | -12.0 | 4.2 | -2.9 | 7.5 | 0.644
CCOC(=O)c1sc(NC(=S)NC(=O)c2ccccc2Cl)c(C(=O)OCC)c1C | -3.2 | nt | nt | nt | nt | 8.4 | -1.9 | 3.7 | 0.757
COc1nc(N)nc(NC(=O)c2cccs2)c1N=O | 38.6 | i | 9.5 | 4.8 | 3.2 | 5.8 | 2.8 | -4.7 | 0.663
CN(C)S(=O)(=O)c1ccc(N2CCCC2)c(C(=O)Nc2ccc(N3CCOCC3)cc2)c1 | 6.4 | nt | nt | nt | nt | -3.8 | -0.7 | 3.2 | 0.751
CSc1ccccc1C(=O)NCCc1ccc(S(=O)(=O)N2CCCCC2)cc1 | -28.5 | i | -21.4* | -11.4* | 1.1* | 0.0 | -0.3 | 4.8 | 0.654
C=CCc1ccc(OCCOCCOc2ccccc2[N+](=O)[O-])c(OC)c1 | -19.5 | nt | nt | nt | nt | -0.1 | -2.5 | 3.4 | 0.712
CCCCCCCCNCCS(=O)(=O)NCc1ccccc1OC | nt | i | -4.0 | -34.8 | 22.9 | 1.5 | -2.0 | nt | nt
CCn1c(C)nc2cc(C(=O)NNC(=S)Nc3ccc(Cl)cc3Cl)ccc21 | nt | nt | nt | nt | nt | -6.0 | -1.6 | 3.5 | 0.685
CC(=O)c1ccc(OCC(O)CN(C)Cc2cccs2)cc1 (stereo not drawn) | -4.2 | nt | nt | nt | nt | 4.0 | -2.2 | 0.6 | 0.676
CCOC(=O)c1c(C)[nH]c(C)c1C=O | 0.6 | i | 1.5 | -0.9 | 0.3 | 1.5 | -2.4 | nt | nt
CN1CCc2c(sc(N)c2C(=O)c2ccc(Cl)cc2)C1 | nt | i | 3.4 | 1.9 | 2.4 | 3.4 | 40.4* | 3.4 | 0.684
CCOP(=O)(OCC)c1nc(-c2cccc3ccccc23)oc1NCCc1ccc(OC)cc1 | -2.6 | i | 8.7 | -0.9 | 5.5 | 1.5 | 0.2 | i | 0.678
CNc1cncc(-c2ccc(O)cc2)n1 | nt | i | 14.1 | 8.5 | 0.4 | nt | 3.3 | nt | nt
COc1ccc(CCNC(N)=S)cc1OC | 0.9 | nt | nt | nt | nt | -3.7 | 0.0 | 2.4 | 0.721
COc1ccc(CNc2ccc(C)c(C)c2)cc1 | 36.4 | i | 11.8 | 9.4 | -9.0 | 3.6 | -1.4 | 2.3 | 0.702
CC(C)OC(=O)CSc1n[nH]c(-c2cccnc2)n1 | -6.3 | nt | nt | nt | nt | -4.2 | -0.5 | 1.8 | 0.642
CC(C)CCn1c(-c2nonc2N)nc2ccccc21 | 3.0 | nt | nt | nt | nt | -1.3 | 7.8 | 1.2 | 0.694
CCc1ccc(C(=O)CSc2nc3ccccc3c(=O)[nH]2)cc1 | 13.6 | nt | nt | nt | nt | -3.5 | -2.1 | 1.3 | 0.738
OC1CC2CCC(C1)N2CCCN1c2ccccc2Sc2ccc(Cl)cc21 (stereo not drawn) | nt | i | -52.2 | -80.1 | -20.3 | 29.6 | 3.5 | 7.1 | 0.647
Cc1cc(C)n(S(=O)(=O)/C=C/c2ccccc2)n1 | 0.9 | nt | nt | nt | nt | 10.9 | 0.5 | 0.9 | 0.682
O=C(c1cccc(C(F)(F)F)c1)C1CCCN(C(=O)CCCn2cncn2)C1 (stereo not drawn) | 6.8 | i | 11.7 | 7.6 | 2.0 | 2.6 | 2.7 | 0.8 | 0.68
CCOc1ccccc1NC(=O)C1CCC(CNc2c(N3CCCCC3)c(=O)c2=O)CC1 (stereo not drawn) | -4.7 | i | 8.7 | 5.0 | -1.9 | -1.6 | -1.2 | 0.3 | 0.645
CCOc1ccc(-n2cc(C(=O)N3CCCCCC3)c3cc(OC)c(OC)cc3c2=O)cc1 | 3.3 | nt | nt | nt | nt | 6.6 | 0.1 | 2.7 | 0.739
COc1ccc(S(=O)(=O)NCC2CCCO2)c(Cl)c1Cl (stereo not drawn) | -8.3 | i | 9.0 | 7.1 | -0.8 | 1.4 | 2.5 | -0.1 | 0.675
CC(NC(=O)c1cc(COc2ccc3ncccc3c2)on1)c1ccc(F)cc1 (stereo not drawn) | 2.1 | nt | -3.1 | -1.8 | 1.4 | 44.7* | -1.9 | 2.5 | 0.715
S=C(NCC1CCCO1)Nc1cccc(Cl)c1 (stereo not drawn) | -6.2 | i | -0.2 | 4.7 | -2.6 | -0.5 | 6.3 | 4.6 | 0.693
CC(CC(=O)C1C(C)C=CCC1(C)C)NNC(N)=O (stereo not drawn) | -4.9 | i | 11.1 | 5.7 | 4.4 | 0.1 | 0.1 | 1.8 | 0.708
Cc1ccc(N(CC(=O)NC2CCCC2)C(=O)CNC(=O)c2cccs2)cc1C | nt | i | 3.7 | -2.8 | 0.1 | -0.9 | 1.8 | 2.8 | 0.642
O=C(c1ccc([N+](=O)[O-])cc1)N1CCN(C(=O)c2cccs2)CC1 | -5.9 | i | 8.9 | 4.9 | -2.8 | -6.9 | -1.8 | 2.3 | 0.726
O=C(CC1(O)C(=O)Nc2ccc(Br)cc21)c1ccccc1 (stereo not drawn) | nt | i | 5.0 | 2.3 | 2.2 | nt | -0.8 | nt | nt

Compound activity deposited in PubChem BioAssay by several laboratories.
